RN4220 kill = S. aureus RN4220 growth inhibition | OD600, 16 h | inhibition, % (test concentration not listed) | 0.33% of 330,000 active;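 active = z-score of -3 or lower and OD600 up to 0.18 on both plates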;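 also: plate controls were untreated cells for no effect and reference antibiotic for full effect; stock transfer was 100 nL into about 80 µL; one replicate is shown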
Bead autofluor = flagged as autofluorescent in microsphere protease counterscreen | compound autofluorescence counterscreen, microsphere flow cytometry; stronger effect = higher value | AID 624483 | fluorescence intensity (no concentration beside the values) | 3.1% of 360,000 active;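 active = at least 3 SD above the mean of all compounds, about 16000 in these data; inconclusive = too few beads counted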;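 also: 100 nL of 1 mM stock went into each well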
PrP UTR inh = inhibition of PrP 5' UTR reporter expression; inhibition, % (no concentration beside the values); 0.35% of 340,000 active; cell-based PrP 5' UTR mRNA reporter, plate reader;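 active = every replicate at 50% or more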;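 also: 0 = median of the neutral control wells; tested in H4 reporter cells; numbers are from one replicate; inactives centre near -14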
ugtP null kill = compounds lethal to S. aureus RN4220 ugtP deletion mutant | OD600 growth, 16 h; some inactives read as strong as hits | growth inhibition, % (no concentration beside the values) | 0.54% of 330,000 active | AID 1259309;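 active = z-score under -3 and OD600 up to 0.15 on both plates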;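 also: plate controls were untreated wells for no effect and antibiotic for full effect; wells of about 80 µL received 100 nL stock; the first replicate is given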
Mtb hypoxia inh = Mtb hypoxia fluorescent reporter inhibition; M. tuberculosis hypoxia-regulated fluorescent reporter, fluorescence; fluorescence inhibition, % (no concentration beside the values); 0.1% of 300,000 active; AID 1159583;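 active = 35 to 45% if threefold the growth effect, above 45% if 1.5-fold the growth effect; inactive = the rest, general growth blockers included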;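 also: wells of about 50 µL received 100 nL stock; 0% = vehicle wells and 100% = reference inhibitor wells; whole bacteria with a GFP reporter of the hypoxia response; strong numbers were not always called active; many hits fall short of the cut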
BJeLR viability = BJeLR cell viability loss; BJeLR (HRASV12) viability, CellTiter-Glo ATP luminescence, 48 h; reference of the scale not given here; inhibition, % (test concentration not listed); 0.17% of 300,000 active; AID 1554;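 active = replicate mean above 50%; inconclusive = above 50% but judged a plate artefact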;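 also: 50 nL library stock added to about 25 µL; numbers are from one replicate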
Mtb hypoxia inh growth = recorded beside Mtb hypoxia inh, whose call it bears; growth inhibition, %; measured here: M. tuberculosis growth (absorbance);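 0% = vehicle and 100% = reference antibiotic; read after six days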
Numbers without * were called inactive; ? = inconclusive; . = not tested or not shown.

SMILES	RN4220 kill	Bead autofluor	PrP UTR inh	ugtP null kill	Mtb hypoxia inh	Mtb hypoxia inh growth	BJeLR viability
CCOc1ccc(/C=N/OCC(=O)NCc2ccco2)cc1	.	4283	-14	.	.	.	-1
CC(C)(C)CC(C)(C)Nc1c(-c2ccc(O)cc2)nc2cnccn12	12	16574*	-1	8	3	5	-6
CC(=O)Nc1cccc(NC(=O)Cc2cccs2)c1	4.9	2961	-7	2	0	5	9
Cc1cc(C)n2c(Br)c(CSc3nc4ccccc4o3)nc2n1	9.1	4194	-29	1	-1	8	1
CS(=O)(=O)c1ccc(CNC(=O)C2(C(F)(F)F)C/C(=C\Cc3ccccc3)CCCO2)cc1 (stereo not drawn)	.	3862	6	.	.	.	-5
NC(=O)N=Nc1c2[nH]c3ccccc3nc-2c2ccccc12	.	6246	-18	.	.	.	18
CCCCNC(=O)CCSc1ccc(C)cc1	4.4	2538	0	12	8	6	13
COc1ccc(-n2nc(C(=O)NCC(=O)N3CCCCCC3)c3ccccc3c2=O)c(OC)c1	3.5	3305	-12	7	2	7	-3
CC(Oc1ccccc1F)C(=O)NNC(=O)C1CC(=O)N(c2ccc3c(c2)OCCO3)C1 (stereo not drawn)	-0.6	6392	-13	11	1	2	13
Cc1ccc(S(=O)(=O)N2CCN(C(=O)c3cccc(-n4cccc4)c3)CC2)cc1	0.1	?	-10	0	-1	7	-6
COC(=O)c1ccc(COC(=O)c2cnc(Cl)c(Cl)c2)cc1	0.4	4130	-28	10	3	-7	2
CCOC(=O)c1nnn(-c2nonc2-c2ccccc2)c1C	9.0	3248	-8	4	10	7	-11
Oc1cccc(C(=S)N2CCCCC2)c1	3.5	3395	-21	8	8	2	-1
C=CCN1c2ccccc2[C@]23CC(C(=O)OC)N(C(=O)c4ccco4)C2=NC(C(=O)OC)=C(C(=O)OC)C13 (stereo partly drawn)	8.8	.	.	2	16	10	.
CC(C)c1ccccc1OCC(=O)N1CCCN(C)CC1	1.2	5617	-6	9	6	11	1
COc1ccc(/C=N/NC(=O)CCn2cnc(-c3ccccc3)c2-c2ccccc2)cc1OC	.	2261	-32	.	.	.	33
COc1cc(SC)ccc1C(=O)NC1CCCCC1	3.0	3598	-41	-13	23	20	-6
COc1ccc(C(=O)Cn2nnc(-c3ccc(N4CCOCC4)cc3)n2)cc1OC	0.6	24165*	-8	-6	-5	-2	-1
O=C(NCC1CCCO1)/C(=C\c1ccccc1)NC(=O)c1ccccc1 (stereo not drawn)	16	4970	-9	5	2	7	8
COc1cc(OC)cc(C(=O)Nc2nnc(NC(=S)Nc3ccccc3)s2)c1	15	1993	-17	-13	-7	3	0
CC(C)=C1C2CCC1C(C(=O)Nc1sc(C)c(-c3ccc(C(C)C)cc3)c1C(N)=O)C2C(=O)O (stereo not drawn)	20	1916	-13	-20	2	5	10
COc1ccc(NC(=O)CSC2CCCCC2)cc1	-0.4	21701*	-154	11	16	6	1
NC(Cc1ccc(O)cc1)C(=O)NN=Cc1ccc(N(CCCl)CCCl)cc1 (stereo not drawn)	8.1	3941	-20	-7	11	6	.
CCc1nnc(NC(=O)c2sc3nc(C)cc(COC)c3c2N)s1	2.1	4399	-21	5	9	2	5
O=C(O)CCC(=O)Nc1ccc(Sc2ccc([N+](=O)[O-])cc2)cc1	3.1	2125	-10	6	-2	0	-5
Cc1ccc(-c2csc3nc4c5ccccc5c(NCCCN5CCOCC5)nn4c(=O)c23)cc1	0.1	.	.	-1	6	12	1
COc1ccc(CC(=O)Nc2ccc(S(=O)(=O)N(C)C)cc2)cc1OC	-2.5	4813	-9	1	.	.	4
COc1ccc(-c2cc(-c3ccccc3)c(C#N)c(SCC(=O)Nc3ncc(C)s3)n2)cc1	1.1	9720	-7	-10	7	2	9
O=C(Nc1ccc(C(=O)N2CCCC2)cc1)c1ccccc1[N+](=O)[O-]	1.1	3155	3	3	0	9	-2
Cc1cc(N/N=C/c2ccc(O)cc2O)nc(-n2nc(C)cc2C)n1	.	2035	29	.	.	.	-13
O=C1NC(=S)/C(=C\c2ccc(-c3ccccc3Cl)o2)S1	97*	2730	-17	95*	3	0	3
Cc1ccc(Oc2ncccc2N)c2c1CCC2	1.4	5364	-20	10	13	-2	-5
COc1ccc(C(=O)N2CCC(n3nnc4cc(F)ccc43)CC2)cc1OC	3.3	2773	-9	0	1	7	-26
COCc1ccc(CN2CCCC(C(=O)c3sccc3C)C2)o1 (stereo not drawn)	6.4	4223	0	-1	12	7	-9
CCc1ccccc1NC(=O)c1cccc(Oc2ccc([N+](=O)[O-])cc2Cl)c1	-3.6	2086	-24	-26	0	9	3
CNC(=O)/C(C#N)=C/c1c(N(Cc2ccccc2)Cc2ccccc2)nc2c(C)cccn2c1=O	-1.4	2351	-14	-18	2	5	-12
COCCNC(=O)C(c1ccc(O)cc1)N(Cc1ccco1)C(=O)CCC(=O)Nc1ccccn1 (stereo not drawn)	0.6	3844	-15	14	-5	4	4
CCOC(=O)C1(Cc2ccccc2C)CCCN(C(=O)CN2C(=O)CSC2=O)C1 (stereo not drawn)	1.8	4265	-21	2	14	10	5
COc1cc(/C=N/O)cc(Br)c1OS(=O)(=O)c1ccc(C)cc1	.	3726	-17	.	.	.	6
COC(=O)C1=C(C(=O)OC)[C@@H]2N(Cc3ccccc3)c3ccccc3[C@@]23C[C@@H](C(=O)OC)N(C(=O)c2cccs2)C3=N1	.	4444	-13	.	.	.	-11
CC(=O)Nc1ccc(Oc2ccc(-c3noc(C)n3)cc2)cc1	-13	3297	-17	-8	4	14	-2
CN(CC(=O)Nc1n[nH]c(=S)s1)S(=O)(=O)c1cccc2cccnc12	1.3	2993	-19	6	14	-3	-4
Cc1ccc(CNC(=O)CSc2nc3n[nH]c(C)c3c(=N)n2-c2cccc(C)c2)cc1	3.4	11511	-16	-30	9	6	-28
CCCn1c(SCC(=O)N2CCc3ccccc32)nnc1-c1ccncc1	2.5	.	.	2	-10	13	-5
COCc1cc(=O)[nH]c(N=C(N)Nc2ccc(C)cc2C)n1	3.9	.	.	1	8	8	.
Cc1ccc2[nH]c(C(=O)N3CCCCC3)cc2c1	2.0	4109	-45	2	-1	5	1
CCC(C)NC(=O)CSc1nc2ccc(N3CCOCC3)cc2c(=O)n1CCc1ccccc1 (stereo not drawn)	2.8	.	.	-14	-6	4	-6
CC(=O)c1ccc(NC(=O)CCc2nnc3ccc(N4CCC5(CC4)OCCO5)nn23)cc1	1.6	6044	-33	0	19	5	11
CC(=O)C1(C)N(O)C(C)(C)C(c2ccco2)=[N+]1[O-] (stereo not drawn)	2.2	5746	-13	-2	1	0	-4
COc1ccc(CNC(=O)Nc2cccc(C(F)(F)F)c2)cc1OC	4.7	1975	-10	2	1	-1	4
CC(=O)Nc1c(C(=O)NCc2ccccc2)nnn1Cc1ccccc1	2.5	4532	-8	11	.	.	-11
Cc1c(NC(=O)COC(=O)CSc2ccc(C(N)=O)cc2[N+](=O)[O-])c(=O)n(-c2ccccc2)n1C	5.1	4390	-3	12	7	1	-5
Cc1c(C(=O)OC2CCC(C)CC2)[nH]c2c1C(=O)CCC2 (stereo not drawn)	2.3	5381	-55	1	.	.	-8
CCCCCOC(=O)C1=C(C)NC(=O)NC1c1ccc(OC)cc1 (stereo not drawn)	1.2	3763	-19	9	0	1	2
COc1cc2nc(CN3CCN(S(=O)(=O)c4cc(C)ccc4C)CC3)[nH]c(=O)c2cc1OC	3.6	3688	-1	-1	-6	9	.
O=C(Nc1ccccc1N1CCCCC1)C1CC(=O)N(c2ccccc2F)C1 (stereo not drawn)	-0.1	3003	-7	-2	3	5	.
CNC(=S)Nc1ccc([N+](=O)[O-])c(C)c1	2.4	4603	-20	0	-3	2	-1
Cc1ccc2nsnc2c1-n1c(C)nc2ccccc2c1=O	6.0	8086	-20	7	14	0	3
Cc1cc(=O)oc2cc(OCC(=O)NCc3ccccn3)ccc12	-0.9	2641	-23	7	.	.	-5
COc1ccc(NC(=O)CN2CCN(S(=O)(=O)c3cccs3)CC2)cc1Cl	0.9	3900	-16	1	-1	5	.

(list continues)
SMILES	RN4220 kill	Bead autofluor	PrP UTR inh	ugtP null kill	Mtb hypoxia inh	Mtb hypoxia inh growth	BJeLR viability
COc1ccc(C(=O)NN=C(C)CC(=O)NC2CCCCC2)c(OC)c1	0.9	.	.	-3	-13	-10	.
COc1ccc(C2CC(=O)c3cnc(N4CCc5ccccc54)nc3C2)c(OC)c1 (stereo not drawn)	9.0	.	.	-67	16	8	-5
Cc1ccc(-c2ccnc3nc(Sc4ncc(C(F)(F)F)cc4Cl)nn23)cc1	2.5	23084*	-13	-18	-2	6	2
COc1ccc(CCN(C)C(=O)CN2C(=O)NC3(CCCCCC3)C2=O)cc1OC	-1.8	6226	-3	-2	6	7	.
Nc1nnc(CC(=O)N/N=C/c2ccc(-c3ccccc3)o2)s1	.	2995	-5	.	.	.	-9
O=C(COC(=O)c1nn(-c2ccccc2C(F)(F)F)cc1O)c1ccc(OC(F)F)cc1	6.7	6716	-23	1	16	9	-6
O=C(Nc1ccc(Cl)cc1)N1CCN(Cc2ccc3c(c2)OCO3)CC1	9.0	3344	4	2	12	0	5
CC1(C)OC(=O)C(=CNc2ccccc2F)C(=O)O1	1.0	10052	-19	0	7	-2	-5
CCCNC(=O)NC(=O)COC(=O)CC(NC(N)=O)c1ccc(Cl)cc1 (stereo not drawn)	1.2	2525	-15	0	6	5	-18
CC1(C)Cc2c(sc(NC(=O)c3ccc(C(=O)c4ccccc4)cc3)c2C#N)C(C)(C)N1	-1.0	5944	-25	10	-7	7	0
CC(NS(=O)(=O)c1ccc2c(c1)CC(C)N2C(=O)C1CC1)c1ccccc1 (stereo not drawn)	6.0	5567	-18	11	3	5	-6
COc1ccc(-c2cn3c(C)c(C(=O)N4CCN(c5ccc(F)cc5)CC4)sc3n2)cc1	-4.5	5897	-59	-1	10	6	-7
CC(=O)N(Cc1ccc(F)cc1)C1=C(NCCc2ccccc2)C(=O)c2ccccc2C1=O	33	3243	-21	-1	.	.	35

From PubChem BioAssay
